GIRK2 activ: opens human GIRK2 potassium channels | P48051 | HEK293-GIRK2 thallium flux, Thallos fluorescence | calls only for hits at 25 µM | actives 0.05% (n = 63,000);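 active = among the strongest 0.2% of first-round signals and kept after retests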;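 note: first round at about 10 µM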
Target sequence (P48051 whole entry, looked up): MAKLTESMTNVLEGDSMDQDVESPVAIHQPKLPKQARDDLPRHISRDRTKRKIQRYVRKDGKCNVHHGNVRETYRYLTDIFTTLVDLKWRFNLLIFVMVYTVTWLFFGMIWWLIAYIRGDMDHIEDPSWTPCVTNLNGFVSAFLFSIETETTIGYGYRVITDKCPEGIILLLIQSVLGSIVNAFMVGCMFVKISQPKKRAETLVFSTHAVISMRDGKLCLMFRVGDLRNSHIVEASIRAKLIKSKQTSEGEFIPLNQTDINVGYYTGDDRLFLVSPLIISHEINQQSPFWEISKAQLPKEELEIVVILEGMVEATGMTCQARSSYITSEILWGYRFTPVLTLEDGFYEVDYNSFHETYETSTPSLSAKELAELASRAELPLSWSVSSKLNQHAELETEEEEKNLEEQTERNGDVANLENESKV
Calls only; i = inactive.

SMILES	GIRK2 activ
Cn1nc(CNC(=O)Nc2ccc3c(c2)OCO3)cc1-c1cccs1	i
CC(Cn1c(N2CCCC2)nc2c1c(=O)[nH]c(=O)n2C)Cn1c(N2CCCC2)nc2c1c(=O)[nH]c(=O)n2C	i
COc1ccccc1NC(=O)c1sc(=S)n(-c2ccc(Cl)cc2)c1N	i
O=c1c2cc3c(cc2nc2sc(Nc4ccc(Br)cc4)nn12)OCO3	i
COc1cn2c(cc1=O)C(=O)N(CCNC(=O)COc1ccc(Cl)cc1)CC2	i
CC(=O)c1ccc(OCC(=O)N2CCN(c3ccc(-n4ccnc4)nn3)CC2)cc1	i
CSc1ccccc1C(=O)N1CCC(Cn2ccnc2-c2ccccc2)CC1	i
COCCNC(=O)N1CCC(Cn2nc(C)cc2C)CC1	i
Cc1nccn1-c1ccc(C(=O)N2CCN(c3ccc(C(F)(F)F)cn3)CC2)nn1	i
COc1cccc(CN2CCC(c3nn(C)c(=O)n3-c3ccccc3)CC2)c1	i
COc1cccc(-c2cc(N)c(=O)n(Cc3ccc(C(F)(F)F)cc3)n2)c1	i
CC(=O)N(Cc1ccoc1)Cc1cccs1	i
COc1cc([N+](=O)[O-])cc2cc(C(=O)NCC3CCCO3)c(=O)oc12 (centres undefined)	i
CCCn1cc(S(=O)(=O)c2ccccc2)c(=O)c2cc(F)c(N(CC)CC)cc21	i
COc1ccc(OC)c(-c2cc(C(=O)NCCSc3nncn3C)n(C)n2)c1	i
O=S(=O)(NCCOc1ccccc1)c1ccc2c(c1)OCCO2	i
COc1ccc(NC(=O)C2CCCN(Cc3nc(-c4cccs4)no3)C2)cc1Cl (centres undefined)	i
Cc1cc(C)n(-c2ccnc(N3CCC(C(=O)NCc4ccccc4)CC3)n2)n1	i
CCCCN1C(=O)c2cccc3c(S(=O)(=O)NC4(C(=O)O)CCCCC4)ccc1c23	i
Cn1c(=O)c2c(nc(N3CCOCC3)n2CC(=O)c2ccccc2)n(C)c1=O	i
COc1ccc(NC(=O)C(=O)NCCc2c[nH]c3ccccc23)cc1Cl	i
O=C(NCC#CCOc1ccc2c(c1)OCO2)C1CCC1	i
COc1ccccc1CCNS(=O)(=O)C1CC1	i
CCn1c(=O)c(C(=O)Nc2cccc3ccccc23)cc2cccnc21	i
COC(=O)c1ccccc1NC(=O)CSc1cc(-n2nc(C)cc2C)ncn1	i
O=C(CN1CCN(Cc2nc3ccccc3[nH]2)CC1)NCc1ccccc1Cl	i
COc1ccc(CC(=O)Nc2ccc(OC)c(N3CCCC3=O)c2)cc1	i
COc1ccc2cc(C(=O)NCCn3nc(C4CC4)n(-c4ccccc4)c3=O)[nH]c2c1	i
COCCNC(=O)c1csc(Nc2cccc(C)n2)n1	i
O=C(/C=C/c1cccs1)N1CCC(Cn2ccnc2-c2ccccc2)CC1	i
COc1ccccc1S(=O)(=O)N1CC(Oc2nc3ccccc3s2)C1	i
CC(=O)CC1(O)C(=O)N(CCOc2ccc3ccccc3c2)c2c(C)cccc21 (centres undefined)	i
CCNC(=O)c1sccc1S(=O)(=O)N(C)c1ccc(Cl)cc1	i
Cc1ccc(NC(=O)Cn2nc3ccc(-c4ccc(Cl)cc4)nn3c2=O)c(C)c1	i
CC(C)CNC(=O)CSc1ncn[nH]1	i
COc1ccc(-c2ccc(N3CCCC(C(=O)Nc4ccc([N+](=O)[O-])cc4)C3)nn2)cc1 (centres undefined)	i
O=C(c1cc2n(n1)CCCO2)N1CCN(Cc2ccccn2)CC1	i
COc1ccc(-c2noc(Cn3c(=O)n(Cc4ccc(C)cc4)c(=O)c4ccccc43)n2)c(OC)c1	i
COCC(C)(O)CNC(=O)C(=O)NC(C)c1ccccc1 (centres undefined)	i
Cc1noc(CNC(=O)C2CC(=O)N(c3ccc(Cl)cc3)C2)n1 (centres undefined)	i
O=C1CCCN1c1ccc(Cn2cccc(S(=O)(=O)N3CCCC3)c2=O)cc1	i
COc1ccc(/C=C/C(=O)c2ccc(O)cc2)c(OC)c1	i
Cc1[nH]nc2c1N=C(c1ccccc1F)c1cc(C#N)ccc1N2	i
Cc1cc(NC(=O)C(=O)NCCO)c2ccccc2n1	i
CCNc1nc2c(c(=O)[nH]c(=O)n2C)n1CC(O)COc1ccc(C)c(C)c1 (centres undefined)	i
O=c1[nH]cnc2c(-c3ccccc3)csc12	i
COc1ccc(-c2nc(-c3nnn(-c4ccccc4)c3-c3ccncc3)no2)c(OC)c1	i
Cc1ccc(NC(=O)C(=O)NCC(O)c2ccoc2)cc1N1CCCC1=O (centres undefined)	i
COc1cc(Cl)c(C)cc1NC(=O)CSc1nccnc1N1CCN(c2ccccc2)CC1	i
COc1cc(-c2noc(Cn3ncn4nc(-c5ccc(F)cc5)cc4c3=O)n2)cc(OC)c1OC	i
NCC1CCC(C(=O)Oc2ccc(CCC(=O)O)cc2)CC1 (centres undefined)	i
COc1nn(C)cc1C(=O)N1CCC(c2ccccc2)C1 (centres undefined)	i
C=CCN1C(=O)C2(SC(NC(C)=O)=NN2C(C)=O)c2cc(C)cc(C)c21 (centres undefined)	i
O=C(NCCn1nc(-n2cccn2)ccc1=O)c1cc2ccccc2oc1=O	i
CCOc1ccccc1NC(=O)c1cn(Cc2ccc(NC(=O)CC3CCCCC3)cc2)cn1	i
Cc1cc(C)n(-c2cc(SCC(=O)Nc3ccc(Cl)c(C(F)(F)F)c3)ncn2)n1	i
O=C(Cn1nc(C2CC2)cc1C(=O)N1CCCC1)Nc1ccccc1	i
CC(Cc1cccs1)NC(=O)c1ccc(Br)o1 (centres undefined)	i
CC1CCCN(CC(=O)Nc2oc3ccccc3c(=O)c2-c2ccccc2)C1 (centres undefined)	i
Cc1ccc2c(CN3CCCCC3CCO)cc(=O)oc2c1 (centres undefined)	i

Other results follow.
SMILES	GIRK2 activ
CCSc1ccccc1C(=O)NCCn1ncc2c(NCc3ccco3)ncnc21	i
O=C(CCSc1ccccc1)NCCn1cnc(-c2ccc(F)cc2)cc1=O	i
O=C(Nc1ccc(F)c(F)c1)c1nnn(-c2ccc(F)cc2)c1-c1cccnc1	i
COC(=O)c1sccc1S(=O)(=O)N(C)c1ccccc1	i
C=CCNC(=O)CCn1c(=O)[nH]c2ccccc2c1=O	i
COc1ccccc1NC(=O)N1CCc2nc(NC(=O)c3ccoc3)sc2C1	i
O=C(c1cc(-c2ccco2)[nH]n1)N1CCC(COCc2ccccc2)CC1	i
O=C(Nc1ccc2c(c1)OCCO2)c1csc(-c2cc3ccccc3[nH]2)n1	i
COc1ccc(CNC(=O)C(=O)Nc2cc(N3CCCS3(=O)=O)ccc2C)cc1	i
Cc1cc(F)ccc1S(=O)(=O)NCC1CCN(C(=O)c2cccnc2)CC1	i
O=C(c1ccc(=O)[nH]n1)N1CCN(Cc2nc3ccccc3[nH]2)CC1	i
CCN(CC)CCCN1C(=O)c2oc3cc(OC)ccc3c(=O)c2C1c1ccc(F)cc1 (centres undefined)	i
CC(=O)Cn1c(=O)c2c(nc3n(-c4ccccc4)c(C)cn23)n(C)c1=O	i
O=C(Nc1cc(C2CC2)nn1-c1nc2c(c(=O)[nH]1)CCCC2)C12CC3CC(CC(C3)C1)C2	i
N#Cc1ccc(Cl)cc1NC(=O)C(=O)NCC1CCCO1 (centres undefined)	i
Cc1ccccc1OCc1ccc(-c2nc(C#N)c(NCCN3CCOCC3)o2)o1	i
C1CCN(c2nc(NC3CCCC3)nc3n[nH]nc23)CC1	i
O=C(c1cc2ccccc2oc1=O)N1CCN(Cc2nnnn2-c2ccc(F)cc2)CC1	i
O=C(CN1CC(c2nc(-c3ncccn3)no2)C1)NCc1ccc2c(c1)OCO2	i
O=C(CCCc1ccccc1)NCCOc1ccc2c(c1)OCO2	i
CCN(c1ccccc1)S(=O)(=O)c1ccc(C(=O)Nc2cccc3c2C(=O)NC3=O)cc1	i
Cc1noc(CNC(=O)C2CCN(C(=O)c3cn(C)nn3)CC2)n1	i
O=C(CSc1ncnc2sc3c(c12)CCCC3)N1CCC(c2noc3ccc(F)cc23)CC1	i
COc1ccccc1CNC(=O)CCc1csc(NC(=O)Nc2cccc(Cl)c2)n1	i
Cc1ccc(-c2nn(-c3ccccc3)cc2C2CC(c3ccco3)=NN2C(=O)CNCCO)cc1 (centres undefined)	i
O=C(NCc1ccc(Cl)cc1)N1CCC(Oc2ccc(C(F)(F)F)cn2)CC1	i
CC(=O)c1ccc(OCC(=O)NCCCn2ncccc2=O)cc1	i
O=C(Cn1cnc2c([nH]c3ccccc32)c1=O)NCc1ccc(F)c(Cl)c1	i
CCc1c(C)nc(SCc2nc(-c3ccc(OC)c(OC)c3)no2)[nH]c1=O	i
CCn1cnc2c(-c3ccccc3)cn(CC(=O)NCc3ccccc3)c2c1=O	i
O=C(CN1C(=O)CCC1=O)N1CC(c2nc(-c3cnccn3)no2)C1	i
COc1ccc(CCNC(=O)N2CCN(Cc3nnnn3-c3cccc(F)c3)CC2)cc1	i
O=C(Cc1ccccc1Cl)N(Cc1ccsc1)Cc1ccco1	i
O=C(CCn1cnc2ccccc2c1=O)N1CCN(CCn2cccn2)CC1	i
O=C(NCCS(=O)(=O)NCc1ccc2c(c1)OCO2)c1ccc2c(c1)OCO2	i
COc1ccc(CNC(=O)C2CCN(c3ncccc3-c3nc(-c4ccccc4)no3)CC2)cc1OC	i

In the list so far, ten contain an aryl thioether with sulfur outside any ring:
SMILES	GIRK2 activ
CSc1ccccc1C(=O)N1CCC(Cn2ccnc2-c2ccccc2)CC1	i
COc1ccc(OC)c(-c2cc(C(=O)NCCSc3nncn3C)n(C)n2)c1	i
COC(=O)c1ccccc1NC(=O)CSc1cc(-n2nc(C)cc2C)ncn1	i
CC(C)CNC(=O)CSc1ncn[nH]1	i
COc1cc(Cl)c(C)cc1NC(=O)CSc1nccnc1N1CCN(c2ccccc2)CC1	i
Cc1cc(C)n(-c2cc(SCC(=O)Nc3ccc(Cl)c(C(F)(F)F)c3)ncn2)n1	i
CCSc1ccccc1C(=O)NCCn1ncc2c(NCc3ccco3)ncnc21	i
O=C(CCSc1ccccc1)NCCn1cnc(-c2ccc(F)cc2)cc1=O	i
O=C(CSc1ncnc2sc3c(c12)CCCC3)N1CCC(c2noc3ccc(F)cc23)CC1	i
CCc1c(C)nc(SCc2nc(-c3ccc(OC)c(OC)c3)no2)[nH]c1=O	i

Next section:
SMILES	GIRK2 activ
COc1ccc(C(=O)CN2C(=O)COc3ccccc3C2=O)cc1F	i
CCn1cnc2c(-c3ccccc3)cn(CC(=O)Nc3ccc(C(C)C)cc3)c2c1=O	i
O=C(Nc1ccc(S(=O)(=O)N2CCN(c3cnccn3)CC2)cc1)c1ccc(C(F)(F)F)cc1	i
O=S(=O)(/C=C/c1ccccc1)N1CCC(Oc2ccc(C(F)(F)F)cn2)CC1	i
COc1cccc(CNC(=O)CSc2nccc(-c3ccc(C)c(C)c3)n2)c1OC	i
COCCn1c(=O)c2c(nc3n(C(C)c4ccccc4)c(C)cn23)n(C)c1=O (centres undefined)	i
CCOCC(=O)NCC(Cc1cccc(F)c1)N1CCNC1=O (centres undefined)	i
Cc1cc(NC(=O)Cn2cnc3c(oc4ccccc43)c2=O)ccc1Br	i
O=C(CSCc1ccccc1)NCc1ccc(C(=O)c2cccs2)s1	i
COCC(=O)N1CCN(c2nnc(SCC(=O)Nc3ccccc3)s2)CC1	i
O=C(CCn1c(=O)[nH]c2ccccc2c1=O)NC1CCN(Cc2ccccc2)CC1	i
O=C(CN1CCN(Cc2nc(-c3cccs3)cs2)CC1)NCc1ccccc1Cl	i
O=C(c1nnn(-c2ccccc2)c1-c1ccccn1)N1CCC(Cc2ccccc2)CC1	i
O=C(c1ccno1)N1CCC(c2ccccc2)C1 (centres undefined)	i
CCc1noc(-c2cnc3nc(C)ccc3c2Nc2ccc(F)c(F)c2)n1	i
O=C(Nc1ccc2c(c1)N(S(=O)(=O)c1ccc(F)cc1)CCC2)C1CC(=O)N(c2ccccc2)C1 (centres undefined)	i
Cn1cc(-c2ccco2)nc1CCNC(=O)C1c2ccccc2Oc2ccccc21	i
CCc1cccc(OCC(O)Cn2c(N3CCC(C)CC3)nc3c2c(=O)n(C)c(=O)n3C)c1 (centres undefined)	i
CCn1nccc1C(=O)Nc1cc2ccccc2oc1=O	i
C=CCOc1ccc(C2c3c(oc4ccccc4c3=O)C(=O)N2CCCN(CC)CC)cc1 (centres undefined)	i
Cn1nc(C2CCN(C(=O)c3cc4ccccc4o3)CC2)n(-c2ccccc2)c1=O	i
Cn1c(N2CCOCC2)nc2c1c(=O)n(Cc1ccccc1Cl)c(=O)n2C	i
Cn1cc(C2=C(c3cn(C)c4cc(C(N)=O)ccc34)C(=O)NC2=O)c2ccccc21	i
CSc1ccccc1NC(=O)C(=O)NCC1(O)CCOc2ccccc21 (centres undefined)	i

Part of the list above in a different format:
O=C(CSc1ncnc2sc3c(c12)CCCC3)N1CCC(c2noc3ccc(F)cc23)CC1
  GIRK2 activ = i

Cc1ccc2c(CN3CCCCC3CCO)cc(=O)oc2c1 (centres undefined)
  GIRK2 activ = i

Cc1ccc(NC(=O)C(=O)NCC(O)c2ccoc2)cc1N1CCCC1=O (centres undefined)
  GIRK2 activ = i

O=C(c1ccno1)N1CCC(c2ccccc2)C1 (centres undefined)
  GIRK2 activ = i

(listing goes on)
SMILES	GIRK2 activ
CCOC(=O)c1ccc(NC(=O)C2CSCCC(=O)N2)cc1 (centres undefined)	i
Cc1nc2ccc(NC(=O)c3cc(-c4ccc(F)cc4)n[nH]3)cc2s1	i
O=C(c1nnn(-c2ccccc2)c1-c1ccccn1)N1CCN(c2ccccc2Cl)CC1	i
CCC(C)NC(=O)c1sccc1S(=O)(=O)N1CCN(c2ccc(F)cc2)CC1 (centres undefined)	i
O=C(O)C1(NS(=O)(=O)c2cccc(C(F)(F)F)c2)CCCCC1	i
Cc1cn2c3c(=O)n(CCN4CCOCC4)c(=O)n(C)c3nc2n1CCN1CCOCC1	i
O=C1c2oc3ccccc3c(=O)c2C(c2cccs2)N1CCN1CCOCC1 (centres undefined)	i
O=C(CN1CCN(C(=O)c2ccc3nsnc3c2)CC1)c1ccco1	i

A portion of the library, so the mix of outcomes need not match the whole.
